Screening data: PubChem BioAssay, National Center for Advancing Translational Sciences (NCATS)
D2 ag – agonists of human D2 dopamine receptor (beta-arrestin); P14416; 360,000 compounds, 0.084% hits; AID 624465; activation, % (test concentration not listed); DiscoveRx PathHunter D2 beta-arrestin, luminescence, 90 min; 100% = 57 uM dopamine signal; in the data active = activation above about 40%; inconclusive = about 15% to 40%; inactive = below about 15%; further: compound concentration not given in the record; the text of the record calls up to 30% inactive
Target sequence (P14416 whole entry, looked up): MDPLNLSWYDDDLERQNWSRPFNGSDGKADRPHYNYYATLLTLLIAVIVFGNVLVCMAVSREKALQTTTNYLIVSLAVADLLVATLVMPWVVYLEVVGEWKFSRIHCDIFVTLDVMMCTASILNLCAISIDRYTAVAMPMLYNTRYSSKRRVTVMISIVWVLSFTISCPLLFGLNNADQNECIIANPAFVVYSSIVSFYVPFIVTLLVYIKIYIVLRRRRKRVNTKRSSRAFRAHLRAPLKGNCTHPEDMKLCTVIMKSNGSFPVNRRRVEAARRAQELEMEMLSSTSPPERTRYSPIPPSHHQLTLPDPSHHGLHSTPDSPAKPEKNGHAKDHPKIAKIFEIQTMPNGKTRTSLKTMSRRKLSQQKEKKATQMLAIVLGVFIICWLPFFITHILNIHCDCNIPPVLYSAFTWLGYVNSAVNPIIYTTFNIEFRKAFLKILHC
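Agonist mode: compounds alone added to overnight-plated D2 PathHunter cells for 90 min at 37 C, with 57 uM final dopamine (EC100) defining full response. Beta-arrestin recruitment detected by chemiluminescent reagent, read after 1 h at ambient temperature.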
Menin-MLL FL inh – inhibitors of human menin-MLL interaction, wild-type MLL peptide; Fluorescence polarization, fluorescein-MLL peptide displacement from menin; FP activity change, % at 61.4 µM; 290,000 tested, under 10 active; inconclusive = falling polarisation curve, or a change in total fluorescence; inactive = total fluorescence flat and polarisation flat or rising; no compound was filed as active; the % refers to the polarisation; negative = inhibition;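 further: % of control where 0% means no effect; inhibitors lower the polarisation; unlabelled MLL peptide was the positive control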
ClpP mod – qHTS Assay for Activators of ClpP | purified B. subtilis ClpP, FRET peptide cleavage, 20 min | AID 651965, 2013 | Potency, µM (doses to about 57.5 µM), for the others: top-dose activity change, negative = active | ATP-dependent Clp protease proteolytic subunit (Bacillus subtilis (strain 168)), P80244 | 340,000 compounds, 1.9% hits; active = well fitted falling curve with a large enough effect; inconclusive = small, poorly fitted or top-dose-only effect; inactive = no such curve, though single readings can be large or run the other way; further: potency means the concentration at half of the fitted maximal effect; the source files actives as falling curves though it sought activators and does not explain the sign; nearly all actives have a fitted effect of over 65% in size; many hits overshoot -100%
Target sequence (P80244 whole entry, looked up): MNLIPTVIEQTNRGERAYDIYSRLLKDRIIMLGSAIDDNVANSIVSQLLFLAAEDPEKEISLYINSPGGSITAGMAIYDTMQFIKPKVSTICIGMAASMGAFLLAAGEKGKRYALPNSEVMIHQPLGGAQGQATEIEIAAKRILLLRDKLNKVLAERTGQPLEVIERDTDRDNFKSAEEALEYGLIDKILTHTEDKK
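FRET quenching reversal measured ClpP activation: 10 microg/mL B. subtilis ClpP at pH 8 with the FRET-FV decapeptide, read at 430 nm after 320 nm excitation. The 20-min minus 0-min signal was scaled between DMSO/no-enzyme wells and ADEP (5.8 microM final).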
Sfp inh – blocks B. subtilis Sfp PPTase activity | AID 1490 | 310,000 compounds, 3.5% hits | Q9F4F7 | Biochemical Sfp PPTase activity, qHTS | Potency, µM, for the others: max response, negative = inhibition, most hits filed as inhibitors; active means well fitted inhibition curve with a large enough effect; inconclusive means small, poorly fitted or top-dose-only effect, or another doubt; inactive means no such curve, though single readings can be large or run the other way;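 further: the enzyme is Sfp with the accession as filed and its product quenches rhodamine fluorescence; potency means the concentration at half of the fitted maximal effect; 0% = enzyme reaction without inhibitor and -100% = no enzyme wells; top concentration of the series not given in the record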
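Reaction rates are the 30-min fluorescence difference (ex 525, em 598 nm) in wells containing 15 nM Sfp, 5 uM rhodamine-CoA and 12.5 uM BHQ-2-YbbR at pH 7.6 with 10 mM MgCl2.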
PINK1 modulator – modulators of PINK1 expression | PINK1 immunofluorescence, high-content cytometry, 24 h | Potency, µM (highest dose often 76.6 µM), for inactives: at the top dose activation (PINK1 increase), hits mostly activators | 410,000 compounds, 0.2% hits | AID 624263; active = well fitted activation curve with a large enough effect; inconclusive = small, poorly fitted or top-dose-only effect; inactive = flat fitted curve, though single readings scatter; cell line not stated here;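 further: potency means the concentration at half of the fitted maximal effect; % of control where 0% means no effect; nearly all actives have a fitted effect of over 65% in size; a mitochondrial uncoupler was the plate control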
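Measures PINK1 amount and localization on or inside mitochondria by immunofluorescence. Stable cells get compounds at 5 concentrations for 24 hours before fixation and staining; CCCP controls included.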
gsp antag – antagonists of gsp mutant (McCune-Albright syndrome). gsp-mutant cells, cAMP HTRF, 30 min; control for the full effect not named in the record. Potency, µM (highest dose often 76.9 µM), for inactives: top-dose activity change, negative = inhibition, hits mostly inhibitors. 340,000 compounds, 0.4% hits. AID 624288; active = falling curve of any shape with a large fitted effect; inconclusive = falling curve, mostly with a smaller effect; inactive = flat or rising curve; cell line not stated here;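 further: intracellular cAMP measured with PDE inhibitor Ro 20-1724 present during compound exposure; potency means the concentration at half of the fitted maximal effect; on the % scale 0 is the no-effect control and ±100 the full control effect; nearly all actives have a fitted effect of over 65% in size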
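HTRF cAMP read-out (cAMP-d2 plus anti-cAMP antibody-K in lysis buffer, 30 min RT). Before lysis, cells are exposed to compounds with […] for 30 min at 37C in DPBS containing Ca/Mg, BSA and Tween 20.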
gsp agonist – gsp mutant agonism | gsp mutant cells, cAMP HTRF, 30 min; control for the full effect not named in the record | Potency, µM (series often up to 76.9 µM), inactives show at the highest dose activation (cAMP increase), hits mostly activators | 340,000 compounds, 0.13% hits | AID 624287; active = well fitted activation curve with a large enough effect; inconclusive = small, poorly fitted or top-dose-only effect, or another doubt; inactive = no such curve, though single readings can be large or run the other way; cell line not stated here;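 further: phosphodiesterase inhibitor Ro 20-1724 added with compounds to block cAMP breakdown; potency means the concentration at half of the fitted maximal effect; nearly all actives have a fitted effect of over 60% in size; about a fifth of the inactives were tested at one dose only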
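Cells in DMEM/10% FBS with G418 were pretreated with compounds in DMSO plus […] (300 uM stock) for 30 min at 37C. cAMP was measured by HTRF (cAMP-d2 plus anti-cAMP antibody-K) after 30 min at room temperature.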
Numbers without * were called inactive; ? = inconclusive; . = not tested or not shown; & = joins results of further samples; [ ] = another dose, or the depositor's remark.

SMILES,D2 ag,Menin-MLL FL inh,ClpP mod,Sfp inh,PINK1 modulator,gsp antag,gsp agonist
CCCCN(Cc1cc2ccccc2[nH]c1=O)S(C)(=O)=O,3.7,0.6,-20%,3%,5.0%,10%,-3%[15.4 µM]
Cc1ccc(S(=O)(=O)N2CCC3(CC2)OCCN3S(=O)(=O)c2c(C)cc(C)cc2C)cc1,-3.0,.,0.4%,.,-1.7%,2%,1%[15.4 µM]
CN(C)c1ccc(CN(C(=O)c2ccccc2Br)C2CCS(=O)(=O)C2)cc1 (configuration not stated),-1.2,.,1.6%,30%[activator],0.5%,1%,-1%
C=CCNC(=O)c1c(CSc2ccccc2)noc1C(=O)NCc1ccccc1,-1.7,-0.3,-2.6%,0%,-0.9%,-7%,-25%
COc1cc2c3c(c1OC)-c1cc4c(cc1CC3(C#N)N(C(=O)c1ccccc1)CC2)OCO4 (configuration not stated),0.9,.,-28%,.,17%,-18%,-3%
CCNC(=S)N1CCc2cc(OC)c(OC)cc2C1COc1ccccc1OC (configuration not stated),0.8,-0.3,.,-8%,-0.1%,-8%,-7%[15.4 µM]
O=C(C[n+]1cc(Br)cc2ccccc21)c1ccc(F)cc1,-6.1,?,-13%&-5.2%,4%,?,-12%,8%
CCOc1ccc(S(=O)(=O)Nc2cc(Cl)ccc2O)cc1,6.3,3.9,-2.4%,-1%,?,-14%,-9%
CN1CC(=O)N/C1=N\C(=O)Nc1ccc(O)cc1,9.0,4.5,0.3%,?,3.1%,3%,-28%
Cc1noc(C)c1-c1ccc2ncnc(NCc3cccs3)c2c1,.,5.3,.,-12%,14%,.,.

Following part:
SMILES,D2 ag,Menin-MLL FL inh,ClpP mod,Sfp inh,PINK1 modulator,gsp antag,gsp agonist
N#CCC(=O)Nc1ccc(C(=O)NCC(c2ccco2)N2CCCCC2)cc1 (configuration not stated),4.3,?,.,0%,0.1%,-5%,-11%[15.4 µM]
CSc1nc(-c2ccco2)nn1C(=O)Cc1ccccc1,-2.1,8.3,-1.3%,-5%,-2.6%,13%,3%
CC(C)(C)C(=O)N1CCN(c2ccc([N+](=O)[O-])cc2-n2cccc2)CC1,0.6,-0.8,.,1%,-1.0%,?,13%
CC(=O)Nc1nc(C)c(-c2csc(Nc3ccc(O)cc3)n2)s1,3.4,1.0,-10%,35µM*,-3.9%,-7%,-26%
C=CCn1c(Cc2nc3ccc(Cl)cc3[nH]2)n[nH]c1=S,0.1,14,-1.7%,50µM*,0.2%,3%,6%
O=S(=O)(NCC1NCCc2ccccc21)c1ccccc1 (configuration not stated),-1.0,-0.5,.,13%,-0.3%,8%,19%
COC(=O)c1ccc(S(=O)(=O)N2CCCN(Cc3cccc(Br)c3F)CC2)n1C,-3.7,-1.8,-0.1%,6%,0.0%,-28%,3%
Cc1ccc(C(=O)C2=C(O)C(=O)N(Cc3cccnc3)C2c2ccc(OC(C)C)cc2)o1 (configuration not stated),-1.6,.,-4.3%,-8%,-0.1%,12%,?
COCCCN(C(=O)CCSc1ccc(F)cc1)c1c(N)n(Cc2ccccc2)c(=O)[nH]c1=O,0.7,.,-0.5%,.,3.4%,-4%,5%
Cc1nnc(SCC(=O)Nc2cc(S(=O)(=O)N3CCOCC3)ccc2N2CCCC2)s1,3.9,.,0.9%,.,0.3%,-3%,30%

Next results follow:
SMILES,D2 ag,Menin-MLL FL inh,ClpP mod,Sfp inh,PINK1 modulator,gsp antag,gsp agonist
Cc1cc(C)n2nc(CC#N)c(C#N)c2n1,-2.6,2.2,.,12%,0.3%,11%,2%[15.4 µM]
C=CCn1c(SCC(=O)Nc2cccc(S(N)(=O)=O)c2)nc2sc(C)c(C)c2c1=O,-1.0,.,-2.3%,.,11%,0%,15%
CC1=C(C(=O)N(C(C)C)C(C)C)CC(CC(=O)NC2CCCC2)C(=O)N1Cc1ccc(F)cc1 (configuration not stated),-5.2,.,-1.5%,.,4.7%,.,.
CCOc1ccc(C(C)=O)cc1Cn1c(=O)oc2ccccc21,1.6,-5.7,0.0%,-1%,-1.7%,-17%,?
Cn1nccc1C(=O)N1CCN(c2ncccn2)CC1,0.3,-2.2,.,16%,-0.2%,-1%,7%[15.4 µM]
O=C(NN1CCOCC1)c1ccc(Br)cc1,-2.8,.,-27%,.,0.6%,7%,8%[15.4 µM]
O=C(Oc1cccc2ccccc12)c1cc(Cl)nc2ccccc12,-4.7,3.3,.,?,0.7%,4%,-11%[15.4 µM]
COc1cccc(CSc2nc3sc(C)c(C)c3c(=O)n2Cc2ccco2)c1,-3.0,3.9,-4.9%,?,2.6%,-18%,-25%
CCOC(=O)c1c(NC(=O)COC(=O)c2cc(OC)c(OC)cc2[N+](=O)[O-])sc(C)c1C,-0.5,8.6,-10%,-13%,8.8%,-5%,-4%[15.4 µM]
Cc1ccc(C)c(NC(=O)CCN2C(=O)c3ccccc3C2=O)c1,0.3,-8.7,-2.3%,3%,1.2%,2%,?

Later entries
SMILES,D2 ag,Menin-MLL FL inh,ClpP mod,Sfp inh,PINK1 modulator,gsp antag,gsp agonist
S=c1[nH]nc(/C=C/c2ccccc2)o1,0.3,-1.8,-3.4%,-18%,0.3%,3%,19%
COc1ccc(N2CCN(C(=O)CC(NC(N)=O)c3cccc(Oc4ccccc4)c3)CC2)cc1 (configuration not stated),0.5,4.0,-0.2%,-5%,?,-6%,-30%
COc1cc(C2C(C#N)=C(N)N(N(C)C)C3=C2C(=O)CCC3)ccc1O (configuration not stated),4.8,-7.5,.,-9%,0.8%,8%,?
Cc1ccccc1-c1n[nH]c(=S)o1,0.8,-0.1,?,-17%,-1.6%,40%[activator],?
Brc1ccc(-c2ccc(/C=N/Nc3nc(N4CCOCC4)nc(N4CCOCC4)n3)o2)cc1,-2.7,3.7,.,10%,4.0%,20µM*,4%
Cc1ccc(NS(=O)(=O)c2ccc3c(c2)NC(=O)CO3)cc1Cl,0.3,-0.7,1.1%,-1%,4.4%,-14%,-37%[inhibitor]
Cc1ccc(N(C)S(=O)(=O)c2cc(-c3cnc(C4CC4)o3)ccc2C)cc1,-3.4,0.3,-0.5%,-15%,5.2%,-12%,-49%[inhibitor]
O=C(CSc1nc2ccc(F)cc2c(=O)n1-c1ccccc1)Nc1ccc2c(c1)CCC2,0.9,.,?,.,3.1%,.,.
CCOc1ccc(NS(=O)(=O)CC23CCC(CC2=O)C3(C)C)cc1 (configuration not stated),-2.1,-1.2,-0.2%,3%,2.8%[38.3 µM],-1%,-19%
CCOC(=O)C[C@H]1c2ccc(C(F)(F)F)cc2S(=O)(=O)N1C(C)C,-2.2,.,1.3%&1.4%,.,-0.6%,1%,-6%

Continuation.
SMILES,D2 ag,Menin-MLL FL inh,ClpP mod,Sfp inh,PINK1 modulator,gsp antag,gsp agonist
N#Cc1cccc(NC(=O)CCN2C(=O)C3CCCCC3C2=O)c1 (configuration not stated),-1.1,.,-0.8%,.,-0.5%,10%,2%[15.4 µM]
COc1ccc(Cl)cc1NC(=O)CN(C)C(=O)CCCc1c[nH]c2ccccc12,1.5,.,-0.8%,-4%,3.3%,?,10%
S=C(NCCN1CCOCC1)Nc1ccc(-c2nc3ccccc3[nH]2)cc1,-3.0,4.0,3.8%,-9%,5.6%,-11%,13%
COC(=O)c1sc(NC(=O)c2c(OC)cccc2OC)c(C#N)c1C,-1.2,1.7,-3.7%,-19%,?,46%[activator],28µM*
CCOC(=O)CC(=O)CSc1nnc2sc3ccccc3n12,-3.2,0.2,1.5%,0%,-1.8%,-3%,?
O=C(NCc1ccc(F)c(F)c1)c1ccc(-c2ccc(F)c(F)c2)c2ccoc12,6.2,.,?,.,1.7%,.,.
COc1ccc(C(CNC(=O)COc2ccccc2)N2CCCCC2)cc1 (configuration not stated),-7.2,.,0.2%,.,1.4%,2%,-2%
CCN(CC(=O)Nc1ccccc1OC)CC(=O)Nc1ccccc1C(F)(F)F,-3.2,-1.5,-10%,12%,0.2%,-1%,-3%[15.4 µM]
COC(=O)C1=C(C)NC(C)=C(C(=O)OC)C1C(=O)OCC(=O)NC1CCCCC1C (configuration not stated),1.3,.,-28%,.,2.9%,.,0%
COc1ccc(N2C(=O)C3CCCN3C2=O)cc1 (configuration not stated),-2.8,-5.2,-0.4%,21%,-1.5%,9%,-25%

Carrying on:
SMILES,D2 ag,Menin-MLL FL inh,ClpP mod,Sfp inh,PINK1 modulator,gsp antag,gsp agonist
O=C(CCNc1cc(Cl)cc(Cl)c1)c1ccco1,1.0,4.4,-1.9%,-2%,0.2%,7%,13%
COC(=O)[C@@H](Cc1ccccc1)NC(=O)[C@H]1CCC(=O)N1C(=O)OCc1ccccc1,-3.4,2.3,-2.9%,17%,0.7%,-3%,.
COc1ccc(-c2noc(-c3ccoc3C)n2)cc1,2.8,-1.8,-4.4%,-4%,11%,-4%,-21%
Cc1cc2[nH]c(=O)c(=O)[nH]c2cc1S(=O)(=O)NC1CCCCC1C (configuration not stated),-1.9,-0.1,4.0%,19%,-1.7%,2%,29%
CCCCn1c(N)c(N(CCOC)C(=O)c2cccc(S(=O)(=O)N3CCCCCC3)c2)c(=O)[nH]c1=O,-3.8,.,-3.0%,.,1.5%,13%,-80%
CCn1cc(C(=O)C(F)(F)F)c2ccccc21,-1.7,-0.4,-2.1%,10%,3.1%,-3%,?
COc1ccccc1-n1cnc2cc(C(=O)NCCCN3CCOCC3)ccc21,1.3,-2.2,-4.6%,7%,-1.9%,6%,-33%[inhibitor]
CCCN1CNC(=S)N(Cc2ccccc2)C1,-4.7,1.8,-0.9%,13%,-0.5%,2%,-33%[inhibitor]
FC(F)(F)c1cc(-c2ccco2)nc(N2CCN(c3ccccc3)CC2)n1,1.4,0.6,-0.3%,9%,1.3%[38.3 µM],7%,-4%
CC(=O)c1c(C(=O)O)[nH]c(C(=O)O)c1C,1.2,0.2,.,0%,0.4%,-9%,0%[15.4 µM]
S=C(Nc1ccc(Nc2ccccc2)cc1)NN1CCOCC1,7.0,2.1,0.7%,14%,0.1%,2%,-4%[15.4 µM]
COCCCNC(=O)CNC(=S)N(Cc1ccccc1)Cc1cccnc1,4.4,-1.6,.,20%,-0.6%,0%,-2%
